TRPML1 ag: qHTS for Agonists of the Human Mucolipin Transient Receptor Potential 1 (TRPML1). 0.12% of 410,000 active. AID 624414, 2012. Mucolipin-1 (Homo sapiens), Q9GZU1. TRPML1-expressing cells, Ca2+ dye fluorescence, FDSS; host cell line not named in the record; reference of the full effect not given here. activation, % (no concentration beside the values); in the data active = activation above about 50%; inconclusive = about 30% to 50%; inactive = below about 30%; also: 0% is about no effect; the text of the record puts the active cut at 80%
Target sequence (Q9GZU1 whole entry, looked up): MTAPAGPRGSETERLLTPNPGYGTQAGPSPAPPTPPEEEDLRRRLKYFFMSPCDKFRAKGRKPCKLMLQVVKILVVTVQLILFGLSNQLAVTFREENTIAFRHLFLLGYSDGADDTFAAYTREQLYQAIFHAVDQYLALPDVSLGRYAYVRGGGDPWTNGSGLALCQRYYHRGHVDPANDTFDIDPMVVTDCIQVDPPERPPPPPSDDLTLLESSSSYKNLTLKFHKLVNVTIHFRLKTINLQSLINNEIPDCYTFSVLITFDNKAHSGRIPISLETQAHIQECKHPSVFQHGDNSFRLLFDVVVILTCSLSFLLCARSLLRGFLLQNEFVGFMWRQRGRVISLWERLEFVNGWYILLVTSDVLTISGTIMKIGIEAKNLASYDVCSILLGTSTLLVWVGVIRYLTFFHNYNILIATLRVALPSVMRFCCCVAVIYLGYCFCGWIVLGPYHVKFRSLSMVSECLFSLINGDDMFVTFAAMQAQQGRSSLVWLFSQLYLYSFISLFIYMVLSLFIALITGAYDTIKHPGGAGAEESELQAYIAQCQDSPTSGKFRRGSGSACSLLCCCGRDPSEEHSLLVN
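Cells: TRPML1-DL, 1X Tet inducer, ~16 h at 37 degrees C/5% CO2. Dye: ABD Ca8 no-wash + quencher, 45-90 min RT. Read: 10 s baseline, compound add, 110 s agonist phase; 54-4 EC80 (4uM final), 110 s antagonist phase.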
ClpP mod: qHTS Assay for Activators of ClpP; 1.9% of 340,000 active; AID 651965, 2013; ATP-dependent Clp protease proteolytic subunit (Bacillus subtilis (strain 168)), P80244; purified B. subtilis ClpP, FRET peptide cleavage, 20 min; Potency, µM (highest dose often 57.5 µM), for the others: top-dose activity change, negative = active; active = well fitted falling curve with a large enough effect; inconclusive = small, poorly fitted or top-dose-only effect; inactive = no such curve, though single readings can be large or run the other way; also: potency is read from the fitted curve at half-maximal effect; the source files actives as falling curves though it sought activators and does not explain the sign; nearly all actives have a fitted effect of over 65% in size; many hits overshoot -100%
Target sequence (P80244 whole entry, looked up): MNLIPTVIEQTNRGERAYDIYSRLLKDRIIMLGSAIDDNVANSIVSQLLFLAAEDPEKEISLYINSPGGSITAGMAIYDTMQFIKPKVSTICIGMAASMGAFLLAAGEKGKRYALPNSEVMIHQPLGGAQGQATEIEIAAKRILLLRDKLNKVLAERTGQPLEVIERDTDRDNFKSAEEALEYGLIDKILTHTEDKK
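ClpP 10 microg/mL final, pH 8 Tris/KCl buffer with BSA, glycerol, Tween-20; compound pinned in; FRET-FV substrate; RT 20 min; Ex320/Em430; ΔFRET vs ADEP 5.8 microM, DMSO, no enzyme.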
gsp antag: qHTS for Antagonists of gsp, the Etiologic Mutation Responsible for Fibrous Dysplasia/McCune-Albright Syndrome: qHTS; 0.4% of 340,000 active; AID 624288, 2012; Potency, µM (top dose mostly 76.9 µM), inactives show top-dose activity change, negative = inhibition, actives largely listed as inhibitors; gsp-mutant cells, cAMP HTRF, 30 min; control for the full effect not named in the record; active = falling curve of any shape with a large fitted effect; inconclusive = falling curve, mostly with a smaller effect; inactive = flat or rising curve; cell line not stated here;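 also: intracellular cAMP measured with PDE inhibitor Ro 20-1724 present during compound exposure; potency is read from the fitted curve at half-maximal effect; % is scaled to controls: 0 for no effect and ±100 for the full control effect; nearly all actives have a fitted effect of over 65% in size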
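Cells, 2000/well, grown 16–24 h in DMEM 10% FBS with 0.5 mg/ml G418, then compounds plus […] (300 uM addition stock), 30 min at 37C. cAMP read by HTRF (cAMP-d2 and anti-cAMP antibody-K in lysis buffer) after 30 min RT.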
gsp ag: qHTS for Agonist of gsp, the Etiologic Mutation Responsible for Fibrous Dysplasia/McCune-Albright Syndrome: qHTS; 0.13% of 340,000 active; AID 624287, 2012; Potency, µM (doses to about 76.9 µM), without a hit: at the highest dose activation (cAMP increase), hits mostly activators; gsp mutant cells, cAMP HTRF, 30 min; control for the full effect not named in the record; active = well fitted activation curve with a large enough effect; inconclusive = small, poorly fitted or top-dose-only effect, or another doubt; inactive = no such curve, though single readings can be large or run the other way; cell line not stated here;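 also: phosphodiesterase inhibitor Ro 20-1724 added with compounds to block cAMP breakdown; potency is read from the fitted curve at half-maximal effect; nearly all actives have a fitted effect of over 60% in size; about a fifth of the inactives were tested at one dose only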
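Cells in DMEM/10% FBS with G418 were pretreated with compounds in DMSO plus […] (300 uM stock) for 30 min at 37C. cAMP was measured by HTRF (cAMP-d2 plus anti-cAMP antibody-K) after 30 min at room temperature.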
TRPML1 inh: qHTS for Inhibitors of the Human Mucolipin Transient Receptor Potential 1 (TRPML1); Mucolipin-1 (Homo sapiens), Q9GZU1; TRPML1-inducible cells, Ca2+ dye fluorescence, FDSS; active compounds read low; inhibition of EC80 agonist-evoked calcium signal; activity change, negative = inhibition, % (test concentration not listed); 0.02% of 390,000 active; in the data active means activity change below about -50%; inconclusive means about -30% to -50%; inactive means above about -30%;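 also: stimulus is agonist 54-4 at its EC80 concentration; % is scaled to controls: 0 for no effect and ±100 for the full control effect; compound concentration not given in the record; the text of the record puts the active cut at -80%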
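Calcium fluorescence in TRPML1-DL cells induced overnight with Tet: a 110 s read after compound pin addition, then a 110 s antagonist read after challenge with 54-4 at 4 uM final (EC80).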
Menin-MLL FL inh: qHTS Assay for Inhibitors Targeting the Menin-MLL Interaction in MLL Related Leukemias: Competition With Fluorescein Labeled MLL-derived Peptide; FP activity change, % at 61.4 µM; Fluorescence polarization, fluorescein-MLL peptide displacement from menin; 290,000 tested, under 10 active; inconclusive = falling polarisation curve, or a change in total fluorescence; inactive = total fluorescence flat and polarisation flat or rising; no compound was filed as active; the % refers to the polarisation; negative = inhibition;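 also: % of control where 0% means no effect; inhibitors lower the polarisation; unlabelled MLL peptide was the positive control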
* hit, by the source's call; u = inconclusive; x = no result given; & = joins results of further samples; [ ] = remark or other dose.

SMILES	TRPML1 ag	ClpP mod	gsp antag	gsp ag	TRPML1 inh	Menin-MLL FL inh
Cc1ccccc1-c1ccnc2[nH]n(-c3ccccc3)c(=O)c12	0.8&2.4	1.3%&1.5%	10.1%	u	-4.3&10.0	1.4
CC(C)C[C@@H](CNCC(=O)[C@H](Cc1ccccc1)NC(=O)c1[nH]cnc1C(=O)N[C@H](CN)CC(C)C)NC(=O)c1nc[nH]c1C(=O)N[C@@H](CC(=O)O)C(=O)O	-1.0	0.6%	6.1%	x	-7.9	x
CCC(=O)Nc1ccc(NC(=O)C23CC4CC(CC(C4)C2)C3)cn1	-0.1	-4.5%	-3.8%	17.5%	0.5	-0.5
COc1ccccc1N1CCN(S(=O)(=O)c2c[nH]c(=O)[nH]c2=O)CC1	0.2	2.4%	15.4%	-5.0%[15.4 µM]	6.7	x
Cc1ccc(C)c(NC(=S)N2CCC(NC(=O)C3CCCCC3)CC2)c1	-1.2	-10.7%	15.3%	-2.3%[15.4 µM]	-2.8	-1.0
COC(=O)COc1cccc(/C=N/NC(=O)CCSc2ccccc2)c1	1.5	x	-14.1%	-1.7%[15.4 µM]	-27.6	-1.0
NC(=O)C1(N2CCCCC2)CCN(C(=O)Nc2ccc(C(F)(F)F)cc2)CC1	0.6	-2.2%	x	x	20.5	x
CCOC(=O)c1sc2nc(C3CC3)cc(-c3ccc(OC)cc3)c2c1N	0.5	272.4%	2.7%	u	22.3	-0.1
COc1ccc(C(C)=O)cc1COC(=O)Cn1cnc2ccccc2c1=O	-0.3	-0.3%	4.3%	-0.2%	1.2	1.9
COc1ccc(Cl)cc1NC(=O)c1cc(C)no1	-0.3	x	0.6%	28.5%[15.4 µM]	-3.1	1.0
CC1=C(C(=O)Nc2cccc(C(=O)NCc3ccc(F)cc3)c2)SCCO1	1.2	-0.7%	17.9%	20.7%	2.0	x
CCC(C)(C)NC(=O)CN(C(=O)CCC(=O)Nc1nccs1)c1ccc(C)cc1	-0.4	1.7%	0.3%	17.6%	-20.3	0.5
COc1ccc(S(=O)(=O)N(C)CC(=O)N2CCCC2)cc1Cl	1.4	x	4.2%	u	27.5	-3.0
COc1ccccc1N1CC(C(=O)NCCN2C(=O)S/C(=C\c3cccnc3)C2=O)CC1=O (centres undefined)	-0.6	1.0%	-1.3%	16.0%	-7.8	x
COc1ccc(Nc2c(-c3ccsc3)nc3nc(C)cc(C)n23)cc1	1.8	0.3%	x	x	-7.2	x
Cc1ccc(-n2c(C)c3c(C)nnc(C)c3c2C)cc1N	-0.2	1.0%	12.5%	8.0%[15.4 µM]	5.1	10.4
Cc1ccc(CSc2nc3cccnc3n2Cc2ccc(C(=O)NCc3ccco3)cc2)cc1	3.0	u	x	x	6.9	x
O=C(CN1C(=O)NC2(CCCC2)C1=O)Nc1ccc(F)c(Cl)c1	1.0	x	0.7%	-3.3%	-2.9	1.8
Cc1cccc(C)c1C(=O)N[C@@H](Cc1ccccc1)C(=O)O	-1.0	0.1%	-5.7%	27.6%	1.5	2.9
CCCOc1ccc(-c2nc[nH]c2[N+](=O)[O-])cc1	-0.3	x	2.5%	u	0.1	6.4
Cc1cccc(NC(=O)Cn2cc(S(=O)(=O)c3ccc(F)cc3)c(=O)c3cc4c(cc32)OCO4)c1	1.5	u	x	x	0.0	x
Cc1cc2ccccn2c1C(=O)c1ccc(Cl)c([N+](=O)[O-])c1	1.7	-1.0%	-14.3%	-15.7%	74.8	-0.1
COc1ccc(NC(=O)NNC(=O)COc2ccc(Cl)cc2C)cc1OC	-0.1	-2.0%	8.9%	-0.1%[15.4 µM]	2.5	4.4
Cc1occc1C(=O)NNC(=O)c1ccccc1C(=O)O	-0.6	x	2.3%	-3.7%[15.4 µM]	-10.2	-3.5
COc1ccc(CC(=O)NCc2cccc(Cl)c2)cc1S(=O)(=O)N1CCOCC1	-0.4	-0.4%	x	u	5.0	x
O=C(Nc1cccc(F)c1)[C@@H]1CCCN1	0.2	2.1%	-0.6%	-15.7%	1.4	-0.1
CN=C(NC)SC1CC(=O)N(c2ccccc2)C1=O (centres undefined)	-0.1	-3.4%	7.1%	-2.1%	2.5	-0.1
Cc1ccc(-c2c(NC(=O)c3ccco3)oc3ccccc3c2=O)cc1	0.2	-5.1%	-14.4%	-1.1%	-6.2	8.9
C[C@H](NC(=O)COc1ccc(Cl)cc1)C(=O)N1CCC2(CC1)NCCc1[nH]cnc12	-0.2	-5.9%	19.5%	2.1%	14.5	x
Cc1ccc(CSc2ccc(-c3ccc4c(c3)OCO4)nn2)cc1	1.1	28.2µM*	11.8%	-2.5%[15.4 µM]	8.6	-1.3
CSCc1cc(N2CCCC2)nc(-c2ccccc2)n1	2.8	x	x	6.6%[15.4 µM]	-2.8	-2.0
CCCCCCN1C[C@@H](O)[C@H](n2cc(COC(=O)c3ccccc3)nn2)C[C@@H]1c1ccccc1	3.1	1.8%	x	u	-8.4	x
Cc1ccccc1NC(=S)NN1CCN(C)CC1	-0.3	47.3%	8.8%	23.0%	16.4	-0.2
COc1ccc(CN2CCC(N3CC(C)OC(C)C3)CC2)c(OC)c1OC (centres undefined)	0.2	2.0%	11.7%	-1.0%	7.5	-0.2
C=CCN1C(=O)/C(=C\c2ccco2)C(C(=O)OC)=C1C	1.1	1.3%	7.2%	-29.1%	0.9	u
CC1=NN(c2ccccc2)C(=O)C1C(=O)c1ccc([N+](=O)[O-])cc1 (centres undefined)	5.4	2.0%	u	-2.1%	7.0	-2.1
O=C1N[C@H](Cc2ccccc2)COC(=O)[C@@H](Cc2ccc(F)cc2)C/C=C\C[C@H]1CC(=O)N(CCO)Cc1ccccc1	-0.3	0.1%	u	x	-0.9	x
Cc1ccc(C(=O)Nc2ccc3c(c2)n(C)c(=O)c(=O)n3C)cc1	0.4	-11.0%	x	x	20.2	x
Cc1ccc(OCCSc2nc(C)c(Cc3ccccc3)c(=O)[nH]2)cc1	1.0	-0.9%	x	x	-16.6	x
CCC(C)NC(=O)CCn1c(-c2ccccc2)cc(C(C)=O)c1C (centres undefined)	0.0	-2.0%	-0.7%	7.6%	32.2	4.3
O=C(Nc1ccc(CN2CCOCC2)cc1)c1ccc(-c2cccc(Cl)c2)o1	0.2	0.1%	-6.2%	-12.3%	-0.1	u
CCCNC(=O)Cn1cnc2sc(C(=O)Nc3cc(OC)c(OC)c(OC)c3)c(C)c2c1=O	1.4	-8.6%	12.4%	20.3%	8.1	4.2
CC(C)c1ccc(NC(=O)c2ccc(F)c(S(=O)(=O)N3CCCCCC3)c2)cc1	1.3	-0.2%	x	x	45.2	x
CC(=O)/C=C1\SC(CC(=O)O)C(=O)N1c1ccccc1 (centres undefined)	0.6	-1.5%	7.3%	-0.6%	-9.4	-3.1
O=C(COC(=O)c1cccnc1Nc1ccccc1F)NC1CC1	0.1	0.7%	-5.6%	-14.8%	17.2	4.2
COc1ccc(/C=N\NC(=O)CCc2c(C)n[nH]c2C)c(OC)c1OC	0.9	x	10.6%	-0.6%[15.4 µM]	8.6	2.8
COc1ccc(S(=O)(=O)N(C)CC(=O)Nc2ccc3c(c2)OCCO3)cc1	-0.7	-3.9%	7.2%	u	6.6	x
CN(CC(=O)Nc1ccccc1Cl)C(=O)c1ccccc1SCC(=O)N1CCCC1	-0.2	-2.2%	8.0%	2.9%	-8.4	x
COc1cc(S(=O)(=O)N(Cc2cccnc2)Cc2cccc(OC)c2OC)ccc1-n1cnnn1	1.3	x	-13.0%	-9.1%[15.4 µM]	24.3	1.0
Nc1ccc(-c2nnc(-c3ccc(-c4ccccc4)cc3)o2)cc1	-0.2	31.6µM*	15.9%	u	-3.3	-1.0
(further entries)
SMILES	TRPML1 ag	ClpP mod	gsp antag	gsp ag	TRPML1 inh	Menin-MLL FL inh
NC(=O)Cn1c(O)c(N=NC(=O)CNC(=O)/C=C/c2ccccc2)c2ccccc21	-0.1	0.8%	8.7%	-1.1%	-9.3	-0.7
CCN1C(=O)[C@@H]2[C@@H](c3ccc(-c4ccc(Cl)c(Cl)c4)c(OC)c3)N3CCC[C@@]3(C(=O)OC)[C@@H]2C1=O	-0.3	-6.0%	u	-1.9%	16.4	x
Cc1ccc(NCCCn2ccc(NC(=O)OCc3ccccc3)nc2=O)cc1C	1.4	-0.2%	-9.9%	x	39.2	x
Fc1ccc(-c2oncc2-c2nnnn2-c2ccccc2)cc1F	-1.4	-4.5%	-8.1%	20.0%	5.1	-0.5
O=C(O)CCCC(=O)Nc1ccccc1C(=O)N1CCCC1	0.7	-1.4%	11.4%	-13.1%	-10.8	5.7
O=C(OCC(=O)c1ccc[nH]1)c1ccc([N+](=O)[O-])cc1	-0.3	0.9%	-5.1%	-15.0%	-3.4	x
CCOC(=O)N1CCN(C(=O)C2CCN(c3ncnc4c3sc3cccc(F)c34)CC2)CC1	0.9	-17.1%	-22.5%	u	-8.1	7.0
COc1cccc(NC(=O)CCc2nc(-c3ccccc3F)no2)c1	0.1	-2.2%	-9.4%	-9.1%	3.4	-1.7
CCCc1ccc(S(=O)(=O)Nc2ccc(C)c(NS(C)(=O)=O)c2)cc1	-0.3	x	2.3%	0.1%[15.4 µM]	-14.5	0.0
Cc1ccccc1CN1CCC(C(=O)Nc2ccc(Oc3cccnc3)cc2)CC1	0.5	-0.5%	2.3%	7.4%	66.4	1.1
O=C(NCc1ccccc1Cl)c1ccc2c(c1)OCO2	0.3	-3.4%	-6.1%	20.7%	-5.4	x
O=C(COC(=O)c1cc2ccccc2cc1O)NC(=O)NCc1ccco1	4.5	x	x	4.6%[15.4 µM]	2.0	6.6
COc1ccccc1N1CCN(C(=O)c2c(C)oc3ncn(C)c(=O)c23)CC1	-0.7	0.3%	x	x	9.6	x
CC1=C(C(=O)OCc2ccccc2)C(c2ccccc2OC(F)F)NC(=O)N1 (centres undefined)	0.7	-1.2%	-23.4%	-26.7%	-2.0	0.9
Cc1cc(C)nc(SCc2nnc(SCC(=O)Nc3ccc(Cl)c(C(F)(F)F)c3)o2)n1	1.4	0.9%	u	u	0.0	4.4
CCCCC(CC)CNC(=O)c1ccc2c(=O)n(Cc3ccc(OC)cc3)c(=O)[nH]c2c1 (centres undefined)	-0.8	1.0%	x	x	-7.8	x
NC(=O)COC(=O)c1cc([N+](=O)[O-])ccc1NCCO	0.3	0.1%	6.7%	u	11.9	-2.2
Nc1nc(N)c2cc(CNc3ccc(Cl)c(Cl)c3)ccc2n1	-0.4	-0.7%	x	-8.3%	-4.5	x
